# Screening results from PubChem.
# gsp antag: antagonists of gsp mutant (McCune-Albright syndrome). gsp-mutant cells, cAMP HTRF, 30 min; control for the full effect not named in the record. Potency, µM (titrated, usually from 76.9 µM), for inactives: top-dose activity change, negative = inhibition, most hits filed as inhibitors. hit rate 0.4% among 340,000. AID 624288; active = falling curve of any shape with a large fitted effect; inconclusive = falling curve, mostly with a smaller effect; inactive = flat or rising curve; cell line not stated here;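 note: intracellular cAMP measured with PDE inhibitor Ro 20-1724 present during compound exposure; potency is the fitted concentration of half-maximal effect; % is set by controls: 0 for no effect and ±100 for the full control effect; nearly all actives have a fitted effect of over 65% in size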
#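 Cells, 2000/well, grown 16–24 h in DMEM 10% FBS with 0.5 mg/ml G418, then compounds plus […] (300 uM addition stock), 30 min at 37C. cAMP read by HTRF (cAMP-d2 and anti-cAMP antibody-K in lysis buffer) after 30 min RT.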
# gsp agonist: activates gsp, the McCune-Albright syndrome mutation; gsp mutant cells, cAMP HTRF, 30 min; control for the full effect not named in the record; Potency, µM (titrated, usually from 76.9 µM), for the others: at the highest dose activation (cAMP increase), most hits filed as activators; hit rate 0.13% among 340,000; AID 624287; active = well fitted activation curve with a large enough effect; inconclusive = small, poorly fitted or top-dose-only effect, or another doubt; inactive = no such curve, though single readings can be large or run the other way; cell line not stated here;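 note: phosphodiesterase inhibitor Ro 20-1724 added with compounds to block cAMP breakdown; potency is the fitted concentration of half-maximal effect; nearly all actives have a fitted effect of over 60% in size; about a fifth of the inactives were tested at one dose only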
#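 Cells in DMEM/10% FBS with G418 were pretreated with compounds in DMSO plus […] (300 uM stock) for 30 min at 37C. cAMP was measured by HTRF (cAMP-d2 plus anti-cAMP antibody-K) after 30 min at room temperature.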
# Sfp PPTase inh: blocks B. subtilis Sfp PPTase activity; AID 1490; Potency, µM, for inactives: max response, negative = inhibition, usual class: inhibitors; Biochemical Sfp PPTase activity, qHTS; hit rate 3.5% among 310,000; Q9F4F7; active = well fitted inhibition curve with a large enough effect; inconclusive = small, poorly fitted or top-dose-only effect, or another doubt; inactive = no such curve, though single readings can be large or run the other way;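 note: the enzyme is Sfp with the accession as filed and its product quenches rhodamine fluorescence; potency is the fitted concentration of half-maximal effect; 0% = enzyme reaction without inhibitor and -100% = no enzyme wells; top concentration of the series not given in the record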
#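 Buffer: 50 mM Hepes-Na pH 7.6, 10 mM MgCl2, 0.01% Nonidet P-40, 0.01% BSA. Enzyme 15 nM, pre-exposed to compound 15 min; substrates then added and fluorescence change tracked over 30 min.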
# Menin MLL FP FL: menin-MLL binding inhibition, fluorescein peptide; FP activity change, % at 61.4 µM; Fluorescence polarization, fluorescein-MLL peptide displacement from menin; 290,000 tested, under 10 active; inconclusive = falling polarisation curve, or a change in total fluorescence; inactive = total fluorescence flat and polarisation flat or rising; no compound was filed as active; the % refers to the polarisation; negative = inhibition;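 note: % of control where 0% means no effect; inhibitors lower the polarisation; unlabelled MLL peptide was the positive control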
# ClpP mod: qHTS Assay for Activators of ClpP; purified B. subtilis ClpP, FRET peptide cleavage, 20 min; Potency, µM (doses to about 57.5 µM), for the others: top-dose activity change, negative = active; ATP-dependent Clp protease proteolytic subunit (Bacillus subtilis (strain 168)), P80244; hit rate 1.9% among 340,000; active = well fitted falling curve with a large enough effect; inconclusive = small, poorly fitted or top-dose-only effect; inactive = no such curve, though single readings can be large or run the other way; note: potency is the fitted concentration of half-maximal effect; the source files actives as falling curves though it sought activators and does not explain the sign; nearly all actives have a fitted effect of over 65% in size; many hits overshoot -100%
# Target sequence (P80244 whole entry, looked up): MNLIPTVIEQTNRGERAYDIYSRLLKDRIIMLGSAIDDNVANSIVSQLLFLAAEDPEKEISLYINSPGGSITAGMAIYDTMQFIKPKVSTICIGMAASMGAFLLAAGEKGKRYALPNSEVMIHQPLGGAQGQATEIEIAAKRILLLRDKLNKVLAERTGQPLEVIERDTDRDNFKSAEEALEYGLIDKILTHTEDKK
#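 ClpP 10 microg/mL final, pH 8 Tris/KCl buffer with BSA, glycerol, Tween-20; compound pinned in; FRET-FV substrate; RT 20 min; Ex320/Em430; ΔFRET vs ADEP 5.8 microM, DMSO, no enzyme.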
# D2 potentiator: human D2 receptor positive allosteric modulation; potentiation, % (test concentration not listed); hit rate 0.23% among 360,000; AID 624464; P14416; DiscoveRx D2 beta-arrestin cells, luminescence, 90 min; 100% = 57 uM dopamine signal; active = potentiation of 50% or more; inconclusive = 30% to 50%; inactive = 30% or less;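 note: compound concentration not given in the record; tested on top of an EC20 dose of dopamine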
# Target sequence (P14416 whole entry, looked up): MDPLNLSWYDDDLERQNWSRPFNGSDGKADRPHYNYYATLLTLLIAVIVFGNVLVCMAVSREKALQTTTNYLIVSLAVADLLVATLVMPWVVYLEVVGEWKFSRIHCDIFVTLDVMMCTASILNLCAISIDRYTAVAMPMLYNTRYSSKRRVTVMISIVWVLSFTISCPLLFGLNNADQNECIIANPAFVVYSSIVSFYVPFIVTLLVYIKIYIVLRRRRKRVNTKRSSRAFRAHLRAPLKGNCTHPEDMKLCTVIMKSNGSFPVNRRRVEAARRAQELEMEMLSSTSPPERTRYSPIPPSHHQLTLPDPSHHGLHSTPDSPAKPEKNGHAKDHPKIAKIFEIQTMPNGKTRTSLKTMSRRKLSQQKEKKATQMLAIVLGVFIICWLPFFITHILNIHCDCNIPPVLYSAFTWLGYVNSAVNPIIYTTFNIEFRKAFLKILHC
#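 PathHunter beta-arrestin assay in DiscoveRx D2 cells. Compounds were added with an EC20 of dopamine (50 nM final) for 90 min at 37 deg C. Luminescence was read 1 h after detection reagent, with 57 uM dopamine as the EC100 control.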
# TRPV1 PAM: human TRPV1 potentiation; Q8NER1; potentiation, % at 8.33 µM; hit rate 0.02% among 320,000; AID 540277; TRPV1-expressing cells, Fluo-8 calcium influx, capsaicin EC20 potentiation; host cell line not named in the record; control for the full effect not named in the record; active means potentiation above 80%; inconclusive means 30% to 80%; inactive means below 30%; note: 0% is about no effect
#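 Cells expressing TRPV1 were dye-loaded with Fluo-8 and read kinetically: 10 s baseline, 3 min after compound (agonist portion), then 2 min after EC20 capsaicin (allosteric enhancer portion). Calcium-bound dye fluorescence at 480/520 nm.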
# * marks the source's active call; other numbers are inactive results; u = inconclusive; x = no result given; + = active, no number; [ ] = dose if it differs, or a comment.
SMILES,gsp antag,gsp agonist,Sfp PPTase inh,Menin MLL FP FL,ClpP mod,D2 potentiator,TRPV1 PAM
O=C(Nc1cccc(C(=O)O)c1)/C(=C/c1cccc([N+](=O)[O-])c1)NC(=O)c1cccc(Br)c1,3%,9%,x,x,x,-3,x
O=C(CC12CC3CC(CC(C3)C1)C2)NC(=S)NCc1ccccc1,23%,9%,17%,1.5,1.1%,-18,9
CC(C)S(=O)(=O)c1csc(C(=O)Nc2ccc(F)cc2)c1N,+,-6%[15.4 µM],6%,1.5,0.6%,-1,-25
Cc1ccc(NC(=O)CSc2n[nH]c(-c3ccncc3)n2)cc1C,-20%,-4%,13%,2.4,-0.9%,-7,7
CSc1ccccc1-c1nnc(-c2ccccc2)o1,-12%,3%,u,0.5,u,7,14
O=[N+]([O-])c1ccc(Sc2ccccn2)nc1,7%,18%,1%,2.2,x,7,0
Cn1c(Cn2c(=O)sc3ccccc32)nnc1SCC(=O)NCc1ccco1,-15%,-24%,16%,4.8,-1.5%,-1,6
O=C(COc1ccc(-c2ccccc2)cc1)NNC(=O)Nc1ccccc1,-1%,-17%,x,x,-1.8%,-16,-9
COc1ccc2nc(C)cc(Nc3cccc(C(=O)O)c3)c2c1,-11%,-15%,10%,6.1,1.3%,-6,5
COC(=O)N/N=C/c1cc(C)n(-c2cccc3ccccc23)c1C,9%,-6%,-10%,0.9,-4.7%,-9,-19
COc1cccc(CNc2ccc(N3CCCCC3)cc2)c1OC,7%,-10%,2.8µM*,1.1,1.9%,-10,0
CC(C)(C)c1ccc(S(=O)(=O)N2CCN(c3ncccn3)CC2)cc1,x,-12%[15.4 µM],24%,0.5,x,-10,27
Cc1sc(NC(=O)Nc2ccccc2)c(C(N)=O)c1C,-6%,-36%[inhibitor],20µM*,-5.1,0.8%,5,-2
CCCc1cc(N2CCOCC2)n2ncc(-c3ccccc3)c2n1,-13%,-9%,-17%,4.4,-5.1%,-8,-23
COc1cc(CCC(=O)OCC(=O)Nc2ccc(C)cc2Cl)cc(OC)c1OC,2%,25%,14%,2.3,x,-5,-8
COc1ccc(CCNC(=O)c2ccc3nc(-c4ccco4)c(-c4ccco4)nc3c2)cc1OC,-6%,23%,10µM*,9.4,-11%,61*,3
O=C(Oc1c(CN2CCOCC2)cc(Cl)c2cccnc12)c1ccc(F)cc1,u,-1%,-10%,-2.1,-0.7%,-29,12
Cc1cccc(NC(=O)c2nc[nH]c2C(=O)N[C@@H](C)c2ccccc2)c1,-11%,x,x,x,-11%,-15,0
O=C(NCCCN1CCOCC1)c1ccc(Sc2ccc(F)cc2)c([N+](=O)[O-])c1,15%,-46%[inhibitor],3%,1.0,-0.4%,-19,-6
O=C(NC1CCCCC1)C(c1ccncc1)N(C(=O)c1csnn1)c1ccc(F)cc1 (stereo not given),2%,-1%,1%,0.6,x,-14,2
O=C(CSc1nnc(-c2cccc(S(=O)(=O)N3CCCC3)c2)n1-c1ccccc1)Nc1cccc(C(=O)O)c1,4%,7%,4%,-0.2,0.1%,-8,-5
CC(C)/C=C1\CC/C(=C\c2ccc(N(C)C)cc2)C1=O,7%,11%,25%,u,-1.4%,-4,3
COc1cc(C(=O)N2CCN(c3cc(Cl)ccc3Cl)CC2)cc(OC)c1OC,9%,u,8%,-4.3,0.3%,-2,-9
O=C(CSc1nnc(-c2ccncc2)n1-c1ccccc1)NC1CC1,7%,-41%[inhibitor],6%,x,-2.2%,0,4
CCS(=O)(=O)Nc1cccc(C2=NN(S(C)(=O)=O)C(c3ccccc3)C2)c1 (stereo not given),3%,-2%[15.4 µM],-5%,u,x,-5,u
SMILES,gsp antag,gsp agonist,Sfp PPTase inh,Menin MLL FP FL,ClpP mod,D2 potentiator,TRPV1 PAM
CCN(CC)S(=O)(=O)c1ccc(Br)c(OC)c1,3%,3%,11%,-2.8,-0.6%,-5,0
CCOC(=O)C1CCN(C(=O)COC(=O)Cc2ccc(Cl)cc2)CC1,2%,2%,19%,9.9,0.0%,1,-8
COc1ccc(NC(=O)COC(=O)c2c(F)cccc2Cl)cc1OC,x,x,12%,0.4,x,x,-1
COc1ccc(NC(=O)CSc2nnc(CNc3ccc(F)cc3)o2)c(OC)c1,-6%,-15%,1%,2.0,-1.5%,5,-4
O=C(NN=C1CCCCCC1)c1ccc(Br)o1,9%,6%,8%,3.2,-2.5%,-6,-3
COc1ccc(C(=O)OCC(=O)NCC2CCCO2)cc1[N+](=O)[O-] (stereo not given),3%,25%,22%,0.8,-1.3%,-11,-8
CN(C)/C(=N\S(=O)(=O)c1ccccc1)c1ccc([N+](=O)[O-])cc1,9%,2%[15.4 µM],17%,0.6,-1.2%,-4,0
Cc1c(C(=O)NCCCN2CCOCC2)sc2nc(-c3ccc(F)cc3)cn12,6%,3%,0%,0.4,0.2%,-19,-2
COc1cc(C2C(C(C)=O)=C(C)Nc3ncnn32)ccc1O (stereo not given),9%,4%,6%,-0.5,-1.6%,-3,1
N#Cc1ccccc1S(=O)(=O)N1CCN(C(=O)c2cc(-c3ccccc3)nn2-c2ccccc2)CC1,-23%,-7%[15.4 µM],11%,x,0.7%,-15,8
N#Cc1ccc(C(=O)NC(=S)NC2CCCCC2)cc1,3%,0%,x,x,-1.0%,0,x
CC1=Nn2c(nnc2-c2cc(-c3ccccc3)n[nH]2)SC1,-7%,u,-1%,4.8,-1.2%,-3,6
COc1ccc(C)cc1NS(=O)(=O)c1ccc2c(c1)NC(=O)C(C)S2 (stereo not given),-9%,-3%,5%,2.4,-0.2%,-2,9
O=C(NC(Cc1c[nH]c2ccccc12)C(=O)Nc1ccc(F)c([N+](=O)[O-])c1)c1cccs1 (stereo not given),-2%,1%,28%,0.9,-0.9%,-14,13
COc1ccc(C(CNC(=O)c2cccc(NS(=O)(=O)c3ccccc3)c2)N(C)C)cc1 (stereo not given),4%,u,13%,x,1.7%,-43,-7
CCC1CCCCN1CCCNC(=O)C1CCCN(S(=O)(=O)N2CC(C)CC(C)C2)C1 (stereo not given),3%,0%,7%,3.6,-3.7%,-10,8
CCOc1ccc(N2CC(O)(c3cccs3)[N+]3=C2CCCC3)cc1 (stereo not given),13%,0%[15.4 µM],7%,-2.9,x,-20,5
CC(=O)c1cccc(NC(=O)c2cnn(-c3ccccc3)c2C)c1,-7%,3%,3%,2.2,-1.8%,-2,-11
O=c1[nH]cc(S(=O)(=O)NCc2ccccc2)c(=O)[nH]1,10%,10%,16%,0.5,0.0%,1,8
O=C(Nc1cc(C(F)(F)F)ccc1N1CCOCC1)c1cccc(S(=O)(=O)N2CCOCC2)c1,x,-33%[inhibitor],x,x,0.9%,2,x
Cc1ccc(OCC(=O)NCc2ccc3c(c2)OCO3)c([N+](=O)[O-])n1,-4%,2%[15.4 µM],15%,0.9,1.3%,-31,7
COc1ccccc1C(=O)NNC(=O)c1ccc(Br)cc1,2%,15%[15.4 µM],4%,-2.0,0.6%,-10,-27
CC1(c2nnc(-c3cccc(Cl)c3)o2)CC(c2c(Cl)cccc2Cl)=NO1 (stereo not given),-29%,28%,x,x,0.3%,-7,x
COc1cc(OC)cc(C(=O)N[C@H](C(=O)NNC(=O)c2ccc(Br)cc2)C(C)C)c1,-1%,42%,x,x,x,-7,x
O=C(Nc1ccc(N2CCN(C(=O)c3ccc(Cl)cc3)CC2)cc1)c1ccc([N+](=O)[O-])o1,5%,-1%,7%,2.8,-1.0%,2,6
SMILES,gsp antag,gsp agonist,Sfp PPTase inh,Menin MLL FP FL,ClpP mod,D2 potentiator,TRPV1 PAM
Cc1ccc(C2/C(=C(/O)c3ccc(OC(C)C)cc3)C(=O)C(=O)N2CCN2CCOCC2)cc1 (stereo not given),-4%,2%,-17%,6.1,-2.7%,4,4
O=C(Nc1nnc(-c2ccc3c(c2)CCCC3)o1)c1ccccc1,-8%,u,27%,0.7,-4.0%,-13,18
COc1ccc(-c2[nH]c3ccccc3c2SCCNC(=O)c2cc3ccccc3oc2=O)cc1,-19%,u,9%,2.5,-1.5%,-1,4
COc1cc(NC(=O)c2cccc([N+](=O)[O-])c2)ccc1NC(=O)c1ccco1,u,-2%[15.4 µM],u,0.4,x,-22,2
CCCN(CCC)CCNC(=O)C1(O)c2ccccc2NC(=O)N1c1cccc(OC)c1 (stereo not given),-4%,u,10%,-1.3,1.5%,-8,17
CCNc1nc(-c2cc(C)n(Cc3ccco3)c2C)cs1,x,-7%[15.4 µM],22µM*,u,x,-9,1
Cc1cc(OCC(=O)N2CCN(c3ncccn3)CC2)ccc1Cl,4%,-47%[inhibitor],3%,2.4,-7.2%,-5,12
COc1ccc(NC(=O)COC(=O)Cc2coc3cc(OC)ccc23)c(OC)c1,5%,-2%[15.4 µM],x,x,-0.5%,4,x
CC1(C)CC2CC(C)(CN2C(=O)COC(=O)c2cccc(O)c2)C1 (stereo not given),-2%,-36%[inhibitor],x,x,-3.2%,-1,-25
COc1ccc(S(=O)(=O)NCc2csc(C)n2)cc1OC,12%,28%,17%,-4.4,-0.9%,5,-2
Cc1ccc(SCc2nc(-c3ccccn3)no2)cc1,-6%,-23%,7%,3.9,2.0%,-4,4
CCc1nnc(NC(=O)CCC(=O)NCCc2ccccc2)s1,0%,u,6%,-2.8,0.8%,-3,27
COc1cccc2sc(N(CCCN(C)C)C(=O)c3sc4ccccc4c3Cl)nc12,26%,u,u,3.8,2.4%,-48,-7
Cc1ccc(S(=O)(=O)N(CCC(=O)NCC(c2ccccc2)N(C)C)c2ccccc2)cc1 (stereo not given),-6%,-63%,x,x,1.9%,-14,x
CCc1ccc(CN(C)C(=O)CCc2nnc(Cc3cccc(C)c3)o2)nc1,3%,23%,12%,-2.6,x,-4,3

# Three entries from above, with values under each structure.
# Fields – gsp antag | gsp agonist | Sfp PPTase inh | Menin MLL FP FL | ClpP mod | D2 potentiator | TRPV1 PAM
COc1ccc(C(=O)OCC(=O)NCC2CCCO2)cc1[N+](=O)[O-] (stereo not given)
  3% | 25% | 22% | 0.8 | -1.3% | -11 | -8
CN(C)/C(=N\S(=O)(=O)c1ccccc1)c1ccc([N+](=O)[O-])cc1
  9% | 2%[15.4 µM] | 17% | 0.6 | -1.2% | -4 | 0
Cc1c(C(=O)NCCCN2CCOCC2)sc2nc(-c3ccc(F)cc3)cn12
  6% | 3% | 0% | 0.4 | 0.2% | -19 | -2
